VDR inhibitor: vitamin D3 receptor (human) inhibition. Potency, µM, without a hit: max response, negative = inhibition, actives largely listed as inhibitors. P11473. hit rate 0.93% among 400,000. VDR-SRC2-3 peptide fluorescence polarization, 2 h; active means well fitted inhibition curve with a large enough effect; inconclusive means small, poorly fitted or top-dose-only effect, or another doubt; inactive means no such curve, though single readings can be large or run the other way; further: series mostly up to about 120 µM
Target sequence (P11473 whole entry, looked up): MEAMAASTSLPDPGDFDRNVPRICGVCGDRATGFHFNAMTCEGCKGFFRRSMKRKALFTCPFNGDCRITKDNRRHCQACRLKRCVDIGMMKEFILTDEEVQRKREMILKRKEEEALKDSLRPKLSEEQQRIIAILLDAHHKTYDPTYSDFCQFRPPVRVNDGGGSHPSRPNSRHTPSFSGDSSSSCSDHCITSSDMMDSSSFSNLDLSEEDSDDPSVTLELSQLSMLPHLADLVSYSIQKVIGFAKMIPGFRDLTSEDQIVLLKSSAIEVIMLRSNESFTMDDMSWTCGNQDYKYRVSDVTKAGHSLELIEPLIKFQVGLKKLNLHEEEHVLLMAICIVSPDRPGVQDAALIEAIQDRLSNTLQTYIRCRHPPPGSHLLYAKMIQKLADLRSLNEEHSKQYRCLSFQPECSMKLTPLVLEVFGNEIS
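Measured by FP: displacement of SRC2-3 coactivator peptide from VDR by library compounds, following a two-hour ambient incubation.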
An asterisk follows results filed as active; ? = inconclusive; & = joins results of further samples. On the % scale 0 is the no-effect control and ±100 the full control effect; potency means the concentration at half of the fitted maximal effect.

SMILES	VDR inhibitor
CS(=O)(=O)c1nncn1-c1ccccc1	-9%
Cn1ncc(Cl)c1C(=O)N1CCN(C(=O)c2ccco2)CC1	-22%
O=C(c1ccc(F)cc1)c1c[nH]c(C(=O)NCCCN2CCOCC2)c1	-4%
O=C(OCC(=O)c1c[nH]c2ccccc12)c1ccc([N+](=O)[O-])s1	6%
C=CCC(CC=C)(C(N)=O)c1ccccc1	-3%
CCCC(O)(CCC)C(=O)NN(C(=O)CCl)c1ccccc1	7%
Cc1ccc(NC(=O)c2cc(-c3cccs3)on2)cc1C	-19%&-13%
CN(CC(=O)Nc1cccc(F)c1)C(=O)c1cccnc1Sc1ccccc1	-13%
Cc1nc(C(=O)Nc2ccc(Cl)cc2)nn1-c1ccc([N+](=O)[O-])cc1	8%
CN(C(=O)c1ccc(NC(=O)Cc2cccc(NC(=O)C3CCCN(C(=O)C4CCCC4)C3)c2)cc1)C1CCCC1 (stereo unspecified)	-21%
COc1cc(C)nc(Nc2nc(C)c(C(C)=O)s2)n1	-14%
Fc1ccc(COc2ccc(-c3nnco3)cc2)c(Cl)c1	-13%
COc1cc(NC(=O)c2cccc([N+](=O)[O-])c2)ccc1NC(=O)c1cc2ccccc2o1	20%
CON(C)C(=O)CCC1CCCN1C(=O)OC(C)(C)C (stereo unspecified)	-7%
Cc1oc(-c2ccccc2)cc1C(=O)NCc1ccncc1	-25%
COc1ccc2c(c1)nc(NCCCO)n2Cc1ccccc1	-24%
CCOc1ccccc1N(CC(=O)Nc1cccc(OC)c1)S(=O)(=O)c1ccccc1	-7%
COc1ccc([N+](=O)[O-])cc1NCc1cccc([N+](=O)[O-])c1	-11%
Cc1ccc(/C=N/NC(=O)c2csc3c2CCCC3)cc1	-6%
Cc1cccc(-c2noc(-c3ccno3)n2)c1	-10%
Cc1ccc(C(=O)N2CCOCC2)cc1Cl	2%
CCCCn1c(N)c(C(=S)NC(=O)CC(C)C)c(=O)n(C)c1=O	-11%
COc1cccc(C2C(C(=O)Nc3ccccc3OC)=C(C)Nc3nc4ccccc4n32)c1 (stereo unspecified)	-12%
COCCCn1c(C(=O)NCCN2CCOCC2)cc2c(=O)n3ccccc3nc21	-2%
O=[N+]([O-])c1cnc(Nc2ccc(Cl)cn2)c([N+](=O)[O-])c1	-13%
O=C(CN1CCN(c2ccccn2)CC1)Nc1ccccc1Br	-8%
O=C(COc1ccccc1)Nc1ccccc1F	-9%
O=C1NCCN1c1ccccc1	0%
CSc1ccc(OC2CCCCC2NS(=O)(=O)c2ccc(Cl)cc2)cc1 (stereo unspecified)	-5%
CC(Sc1n[nH]c(-c2cccs2)n1)C(=O)Nc1ccc(C(N)=O)cc1 (stereo unspecified)	-6%
O=C(C1CCN(c2nc3ccccc3[nH]2)CC1)N1CCN(c2ccccc2)CC1	19%
COc1ccc(-c2nnc(SCC(=O)NC(=O)NCc3ccccc3)o2)cc1	3%
CC1CCN(S(=O)(=O)N2CCC(C(=O)NCc3ccccc3Cl)CC2)CC1	-2%
Cc1c(/C=N/O)c2ccccn2c1C=O	4%
CCOC(=O)N1CCN(C(=O)CSCC(=O)N=c2sc3cc(OC)ccc3n2C)CC1	?
Cc1cc(SCC(=O)OCC(=O)NC(C)c2ccccc2)c(C)cc1Br (stereo unspecified)	-10%
O=C(NCCN1CCOCC1)c1ccc2c(c1)ncn2C1CCCC1	0%
Cc1ccc(-n2c3c(c(=O)[nH]c2=O)C(NC(=O)c2ccccc2F)(C(F)(F)F)C(=O)N3)cc1C (stereo unspecified)	-28%
Cc1ccc(CN2CCN(C3CCN(S(=O)(=O)N(C)C)CC3)C(=O)C2=O)cc1	8%
Cc1ccc(O)c(NC(=O)c2cc([N+](=O)[O-])ccc2Cl)c1	-2%
O=C(O)C(=O)/C(=C\c1cccc2ccccc12)c1ccc2ccccc2n1	2%
CC(C)(C)NC(=O)C(c1ccccc1)N(C(=O)C1CSC(=O)C1)c1ccccc1 (stereo unspecified)	-5%
COc1ccccc1NC(=O)Nc1nc(CC(=O)NCc2ccc(F)cc2)cs1	5%
COC(=O)C1=CN(Cc2ccc(OC)c(OC)c2)C=C(C(=O)OC)C1c1ccccc1F	3%
Cc1cc(C)c(NC(=O)C(=O)NCC(c2cccnc2)N2CCN(Cc3ccccc3)CC2)c(C)c1 (stereo unspecified)	7%
O=C(NCC(c1cccnc1)N1CCN(c2ccccc2F)CC1)c1ccccc1 (stereo unspecified)	5%
COc1cccc(CNC(=O)COc2cc3c(c4oc(=O)cc(C)c24)CCC(C)(C)O3)c1	-13%
O=C1CN(c2ccccc2)C(=S)N1C(=O)c1ccccc1	-28%
CCCCc1nc2ccccc2c(=O)n1NC(=O)c1c(O)c2ccccc2n(C)c1=O	5%
COC(=O)c1ccc2c(c1)NC(=O)CS2	-29%
Cc1ccc(-c2nnc(NCCCO)c3ccccc23)cc1	28%
CN1CCC2(CC1)N=C(c1ccc(F)cc1)C(=S)N2C(=O)c1ccc(C(C)(C)C)cc1	?
COc1cccc(C(=O)Nc2nnc(S(=O)(=O)N3CCCC3)s2)c1	5%&-6%
CC1CCCN(C(=O)c2cc3ccc4cccnc4c3[nH]2)C1 (stereo unspecified)	24%
O=C(CCS(=O)(=O)c1ccc(Br)cc1)N1CCCCCC1	-4%
Cc1cc(C(C)(C)C)cc(S(=O)(=O)Nc2ccc(O)c(C(=O)O)c2)c1C	?
CCS(=O)(=O)c1ncc(Cl)c(C(=O)N(Cc2ccccc2)Cc2ccco2)n1	?
CCOc1ccc(-n2c(SCC(N)=O)nc3c(oc4ccccc43)c2=O)cc1	-4%
CC(C)Cn1c(SCC(=O)NC2CCCc3ccccc32)nc(O)cc1=O (stereo unspecified)	23%
CCOC(=O)c1cnc2c(C(F)(F)F)cccc2c1N1CCN(C)CC1	-5%

Ordered by value in VDR inhibitor (ascending): three of the compounds above.
SMILES	VDR inhibitor
CN(C(=O)c1ccc(NC(=O)Cc2cccc(NC(=O)C3CCCN(C(=O)C4CCCC4)C3)c2)cc1)C1CCCC1 (stereo unspecified)	-21%
COc1ccc([N+](=O)[O-])cc1NCc1cccc([N+](=O)[O-])c1	-11%
O=C(C1CCN(c2nc3ccccc3[nH]2)CC1)N1CCN(c2ccccc2)CC1	19%

The list continues.
SMILES	VDR inhibitor
Cc1ccccc1NC(=O)CC1SC(=Nc2ccc(O)cc2)NC1=O (stereo unspecified)	14%
O=C(NNC(=O)c1ccccc1[N+](=O)[O-])Nc1ccc(Cl)cc1	8%
COc1ccccc1N(CC(=O)Nc1cc(C)on1)S(=O)(=O)c1ccc(Cl)cc1	11%
COc1ccc(NC(=O)N2CCCC(C(=O)NC(C)C)C2)cc1 (stereo unspecified)	3%
CCC1CCCCN1C(=O)COC(=O)CSc1ccc(C(N)=O)cc1[N+](=O)[O-] (stereo unspecified)	11%
COCCN(C(=O)COC(=O)COc1ccc2c(c1)CCC2)c1c(N)n(Cc2ccccc2)c(=O)[nH]c1=O	-12%
CN1CC[C@]2(CCN3CCc4c(oc5ccccc45)[C@@H]3C2)N(C)C1=O	4%
N#C/C(=C/C1=C(N2CCOCC2)C(=C/c2cccc([N+](=O)[O-])c2)/CC1)C(=O)Nc1ccccc1F	0%
CCN(CC)S(=O)(=O)c1ccc(Cl)c(NC(=S)NC(=O)C2CCCC2)c1	-5%
Cn1cc(C(CO)Cc2ccccc2)c2ccccc21 (stereo unspecified)	-16%
CC(OC(=O)Cn1[nH]c(=O)c2ccccc2c1=O)C(=O)c1ccccc1 (stereo unspecified)	23%
Cc1cc(F)ccc1S(=O)(=O)Nc1ccccc1C(=O)Nc1ncn[nH]1	18%
Cc1ccccc1CN1C2=NCCN2c2ccccc21	5%
CC(C)C[C@H](NC(=O)[C@H]1N2C(=O)c3ccccc3C2SC1(C)C)C(=O)N[C@@H](Cc1ccccc1)C(=O)O (stereo partly specified)	4%
OCCNc1nc(-c2cccnc2)nc2ccccc12	8%
Cn1ccc2c(OCC(=O)Nc3ccc(OC(F)(F)F)cc3)cccc2c1=O	2%
COC(=O)c1ccc(NC(=O)COC(=O)c2nc3nccc(C)n3n2)cc1	25%
CC1Cc2ccccc2N1S(=O)(=O)c1cccc(C(=O)OCC(=O)NCc2ccco2)c1 (stereo unspecified)	17%
COc1ccc(-c2noc(-c3ccc(NCc4ccc(C)cc4)c([N+](=O)[O-])c3)n2)cc1OC	-4%
COc1ccc(C/C(N)=N/O)cc1	7%
COc1ccc(N(CC(=O)NCc2ccc3c(c2)OCO3)C(=O)CCC(=O)Nc2ccccn2)cc1	-11%
Cc1c(C)c2ccc(OCC(=O)Nc3ccccn3)c(C)c2oc1=O	1%
COC(=O)c1sc(NC(=O)COc2cccc3ccccc23)nc1C	0%
O=C(O)CCc1nn2c3ccccc3n(CCN3CCCCC3)c2nc1=O	-9%
COc1ccc(C(=O)/C=C/c2ccc(C)cc2)c(OC(=O)c2ccc([N+](=O)[O-])cc2)c1	-10%
CCc1ccc(NS(=O)(=O)c2ccc3[nH]cc(C(=O)N4CCCCC4)c(=O)c3c2)cc1	1%
CC(Cc1ccccn1)NC(=O)CCc1nnc(C2CCCCC2)o1 (stereo unspecified)	14%
O=c1cc(-c2ccccc2)cc(-c2ccccc2)n1CCCO	-12%
COC(=O)C12CC3CC(C1)CC(n1cnc(Cl)n1)(C3)C2	6%
CCN(CC)S(=O)(=O)c1cccc(-c2nnc(SCC(=O)NC3CCCCCC3)n2N)c1	-6%
CCCSc1ncc(Cl)c(C(=O)N2CCN(c3cccc(Cl)c3)CC2)n1	-1%
O=C(CSc1nnc(Cc2cccs2)n1Cc1ccco1)Nc1cccc(Cl)c1	-29%
O=S(=O)(Nc1cccc2c1CCCC2)c1ccc(Cl)cc1	-2%
O=C(CCNC(=O)C1CCN(S(=O)(=O)c2ccc(F)cc2)CC1)NCc1cccnc1	0%
Nc1ncc(S(=O)(=O)Nc2ccc(F)cc2F)cn1	0%
CCOc1ccc(N=C2NN=C(c3cc(C)n(CC4CCCO4)c3C)CS2)cc1 (stereo unspecified)	-4%
O=C(Nc1nnc(S(=O)(=O)N2CCOCC2)s1)c1ccccc1F	-8%&13%
Cc1cccc(C)c1Nc1c(-c2ccccc2F)nc2cccc(C)n12	-12%
CC1CCCCC1NC(=O)COC(=O)/C=C/c1ccc2c(c1)OCO2 (stereo unspecified)	1%
CCOc1ccc2nc(Cl)c(/C=C/C(=O)c3ccco3)cc2c1	?
O=C(CSc1nnc(-c2ccncc2)o1)NC1C2CC3CC(C2)CC1C3 (stereo unspecified)	-10%
CCCN1CCN(CCCNC(=O)c2ccc3c(c2)sc2nc(-c4ccc(OCC)cc4)cn23)CC1	20%
CCOCCn1c(CN2CCCCC2C)nc2c1c(=O)n(C)c(=O)n2C (stereo unspecified)	-14%
CCc1ccc(OCCOC(=O)Nc2ccccc2)cc1	-14%
CCCCCCCC(=O)N/N=C(\C)c1cccnc1	-8%
CCOC(=O)c1cn(CC(=O)Nc2cccc(Cl)c2C)nn1	-8%&9%
COC(=O)CN1C(=O)[C@@H]2[C@H](C1=O)[C@@H]1CC(C(=O)OC)=C[C@@H](C(=O)OC)C3C1=C(C(=O)C31CCCCC1)[C@@H]2C (stereo partly specified)	-14%
CC12CCCC(C(C#N)C(N)=O)(C1)NC(=O)C2C#N (stereo unspecified)	0%
CCOc1ccccc1C1C2C(=O)N(c3ccccc3)C(=O)C2ON1c1ccccc1 (stereo unspecified)	-5%
COC(=O)c1cccnc1-n1c(=O)c2cccnc2n(Cc2cccc(C(F)(F)F)c2)c1=O	-3%
COC(=O)c1ccc2c(=O)n(CC3CCCO3)c(SCC(=O)Nc3ccc(OC)cc3OC)nc2c1 (stereo unspecified)	-3%
c1ccc(Cc2nnc3sc(-c4cccs4)nn23)cc1	?
O=C(C1=C[C@@H](c2ccc(C(F)(F)F)cc2)C[C@@H](OCc2ccc(CO)cc2)O1)N1CCOCC1	-13%
Cc1ccc(CNc2nc3ccc(Cl)cc3n3nnnc23)cc1	-4%
Cc1ccc(S(=O)(=O)N2CCN(C(=O)c3cc(S(=O)(=O)N(C)C)ccc3N3CCCC3)CC2)c(C)c1	0%
Cc1noc(C)c1S(=O)(=O)N(CC(=O)NC(C)c1ccccc1)c1ccc(C(C)C)cc1 (stereo unspecified)	-3%
COc1cccc(/C=N/n2cnc3cc(C)c(C)cc32)c1OC	-1%
C[C@H](O)[C@@H]1C(=O)N2CCc3ccc(-c4cccc(F)c4)cc3[C@@H]2C[C@@H]1N(C)C(=O)Nc1ccccc1	-7%
Cc1ccoc1C(=O)NCCCNC(=O)c1occc1C	?
O=C(CCCSc1nc2sc3c(c2c(=O)[nH]1)CCC3)NCCCO	0%
COc1cccc(CC(=O)NN2C(=O)NC3(CCCCC3)C2=O)c1	-7%
CCOc1ccc(S(=O)(=O)NCc2ccncc2)cc1NC(=O)c1ccccc1F	-13%
Nc1c(-c2ccccc2)c(CN2CCOCC2)nn1-c1cccc([N+](=O)[O-])c1	-9%

Among those listed so far, these have a nitro group on carbon.
SMILES	VDR inhibitor
O=C(OCC(=O)c1c[nH]c2ccccc12)c1ccc([N+](=O)[O-])s1	6%
Cc1nc(C(=O)Nc2ccc(Cl)cc2)nn1-c1ccc([N+](=O)[O-])cc1	8%
COc1cc(NC(=O)c2cccc([N+](=O)[O-])c2)ccc1NC(=O)c1cc2ccccc2o1	20%
COc1ccc([N+](=O)[O-])cc1NCc1cccc([N+](=O)[O-])c1	-11%
O=[N+]([O-])c1cnc(Nc2ccc(Cl)cn2)c([N+](=O)[O-])c1	-13%
Cc1ccc(O)c(NC(=O)c2cc([N+](=O)[O-])ccc2Cl)c1	-2%
O=C(NNC(=O)c1ccccc1[N+](=O)[O-])Nc1ccc(Cl)cc1	8%
CCC1CCCCN1C(=O)COC(=O)CSc1ccc(C(N)=O)cc1[N+](=O)[O-] (stereo unspecified)	11%
N#C/C(=C/C1=C(N2CCOCC2)C(=C/c2cccc([N+](=O)[O-])c2)/CC1)C(=O)Nc1ccccc1F	0%
COc1ccc(-c2noc(-c3ccc(NCc4ccc(C)cc4)c([N+](=O)[O-])c3)n2)cc1OC	-4%
COc1ccc(C(=O)/C=C/c2ccc(C)cc2)c(OC(=O)c2ccc([N+](=O)[O-])cc2)c1	-10%
Nc1c(-c2ccccc2)c(CN2CCOCC2)nn1-c1cccc([N+](=O)[O-])c1	-9%

Compound activity as filed in PubChem.

These rows are one share of the data. The share of hits here may be higher or lower than overall.
